Mtb growth: Confirmatory growth inhibition assay against Mycobacterium tuberculosis H37Rv, potency (AID 1949); most inactive calls were filed without a number and no value below 0 was filed; 100,000 compounds, 1.6% hits; inhibition, % at 10 µg/mL, or IC50 in µg/mL where a hit was titrated;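 active = confirmed in a dose series; inconclusive = about 50% or more but not retested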;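 also: bacteria grown 7 days with compound before Alamar blue readout; 0% = untreated bacteria and 100% = reference antibiotic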
An asterisk follows results filed as active; i = inactive; ? = inconclusive. These rows are one share of the data; the hit share may differ from the screen's.

SMILES	Mtb growth
NC(=O)C1CCCN(S(=O)(=O)c2ccc(S(N)(=O)=O)cc2)C1 (stereo not given)	i
O=C(O)CCc1ccc(S(=O)(=O)NCCc2ccccc2)cc1	i
O=C(NC(=S)c1cccc2ccccc12)N1CCCCC1	i
CCOc1ccc(C(=O)Nc2cc(NC(=O)c3ccco3)ccc2OC)cc1[N+](=O)[O-]	i
CCC(C)c1ccccc1OCCCCN(CC)CC (stereo not given)	4%
Cc1ccc(Cc2nc(-c3ccc([N+](=O)[O-])cc3)no2)cc1	3%
CCCN(CCC)C(=O)c1cccc(C)c1[N+](=O)[O-]	i
Cc1cccc(C)c1NC(=O)c1sc(N)nc1-c1ccccc1	i
COc1cccc(OCCCCNC(C)c2ccccc2)c1 (stereo not given)	i
CCOc1cc(OCC)cc(C(=O)N2CCN(c3ccc(C(F)(F)F)cc3[N+](=O)[O-])CC2)c1	8%
O=C(O)c1cccc(NC(=S)NC(=O)c2ccccc2Cl)c1	i
Cc1ccccc1C(=O)N1CCC(C(=O)Nc2ccc(F)cc2F)CC1	i
O=C(NCc1cccnc1)C(=O)Nc1ccc(Cl)cc1	i
O=C(c1cc(-c2ccncc2)nc2c(Cl)cccc12)N1CCN(c2ccccc2F)CC1	6%
CCOc1ccc(/C=C(\C#N)S(=O)(=O)c2ccccc2)cc1OC	i
c1ccc(Nc2c3ccccc3nc3ccccc23)nc1	i
CC(=O)Nc1ccc(S(=O)(=O)N2CCN(Cc3csc(C)n3)CC2)cc1	i
CC(C)C(=O)Nc1cccc(C(=O)Nc2ccccc2C(F)(F)F)c1	i
CN(C)CCSc1nnnn1-c1ccccc1	i
CCCC(=O)Nc1ccc2c(c1)Cc1ccccc1-2	i
Nc1nnc(SCc2ccccc2)s1	i
COC(=O)CSc1nc2sc3c(c2c(=O)n1Cc1ccccc1)CC(C(C)C)OC3 (stereo not given)	i
CCOc1cc(CNCCO)cc(Cl)c1OCc1ccccc1	30%
O=S(=O)(Nc1ccc(Cc2ccncc2)cc1)c1cccs1	1%
Clc1ccc(-c2nc(-c3ccccc3)no2)cc1	i
Cc1nc(-c2cccs2)c(CC(=O)O)s1	i
CC(C)c1nnc(NC(=O)Cc2ccccc2[N+](=O)[O-])s1	i
CCOC(=O)c1cc(-c2ccccc2)sc1NC(=S)Nc1cc(OC)c(Cl)cc1OC	i
O=C(NNC(=S)Nc1ccc(Cl)cc1)NC12CC3CC(CC(C3)C1)C2	0%
CCn1c(SCC(=O)N2CCN(c3ccccc3)CC2)nnc1-c1ccc(Cl)cc1	i
COc1ccc(Cc2nnc(NC(=O)Cc3ccc(F)cc3)s2)cc1OC	i
CCOc1ccc(NC(=O)CCSc2nnc3scc(-c4ccc(Cl)cc4)n23)cc1	i
S=C(NCCc1ccccn1)Nc1ccc(Cl)cc1	i
COc1c(S(=O)(=O)N2CCc3ccccc3C2)ccc(Cl)c1Cl	i
COc1cc(S(=O)(=O)n2c(C)nc3ccccc32)c(C)cc1C	7%
O=C(CNC(=O)c1ccc(Cl)cc1)c1ccccc1	i
COc1cc(CNCCO)cc(Cl)c1OCc1cccs1	i
O=C(c1ccccc1)N1CCN(c2ccc([N+](=O)[O-])c(NC3C4CC5CC(C4)CC3C5)c2)CC1 (stereo not given)	5%
O=c1oc2ccccc2n1CCn1c2ccccc2c2nc3ccccc3nc21	i
O=C1c2cccc3cccc(c23)C(=O)N1c1ccc(F)cc1F	0%
COc1ccc(-c2nc(SC3CC(=O)N(c4ccc([N+](=O)[O-])cc4)C3=O)n[nH]2)cc1 (stereo not given)	i
S=C(c1ccc2c(c1)OCO2)N1CCN(c2cccc(Cl)c2)CC1	i
CCOC(=O)C1=CC2(SC=C(C(=O)OCC)S2)C2=C(S1)C(C)(C)Nc1ccc(OC)cc12 (stereo not given)	i
Cc1cc(Cl)ccc1OCC(=O)N1CCCCC1	i
COc1ccc(N2CCN(CC(O)COc3ccc4ccccc4c3)CC2)cc1 (stereo not given)	6%
COc1cc(C2C3=C(CCCC3=O)NC3=C2C(=O)CCC3)ccc1OCc1c(Cl)cccc1Cl	i
C=CCN(CC=C)C(=O)c1cnn(-c2ccccc2)c1NC(=O)c1ccccc1C	0%
COc1cc2c(=O)n(-c3ccccc3)c(=S)[nH]c2c(OC)c1OC	i
O=C(Nc1sc2c(c1C(=O)NCC1CCCO1)CCC2)c1sc2ccccc2c1Cl (stereo not given)	i
Cc1sc(NC(=O)C(C)(C)C)c(C(=O)O)c1C	i
CS(=O)(=O)N(Cc1ccccc1)c1ccccc1C(=O)N1CCCC1	i
O=C(Cn1nnc(-c2ccccc2Cl)n1)N1CCOCC1	i
CC(C)(C)c1cc(O)c(S(N)(=O)=O)c(C(C)(C)C)c1	13%
CCC(Oc1ccccc1)C(=O)N(C)Cc1ccccc1 (stereo not given)	i
CCN(CC)c1ccc(C(=O)NNC(=S)Nc2cccc(C(C)=O)c2)cc1	i
Fc1ccc(NC(=S)Nc2ccc3c(c2)OCCO3)c(F)c1	i
C=CCNC(=O)c1ccccc1NC(=O)CN(c1ccc(Cl)cc1)S(=O)(=O)c1ccc(OC)cc1	2%
CC12CN(C(=O)c3ccc(I)o3)C3(C#N)CC1CCC23C (stereo not given)	i
Clc1ccc(CNCCCN2CCOCC2)c(Cl)c1	i
CC1(C)CC(=O)C2=C(C1)Oc1ccccc1C2CC(=O)c1cccs1 (stereo not given)	3%
(further entries)
SMILES	Mtb growth
O=C(NC1CCCCC1)C1CCN(C(=O)c2ccc(Cl)cc2Cl)CC1	i
Fc1cccc(Cl)c1CNc1ccc(N2CCCC2)cc1	?
CC(=O)Nc1ccc(S(=O)(=O)N(C2=NCC(C)S2)c2ccccc2)cc1 (stereo not given)	i
N#Cc1ccc(NC(=O)c2cccc(F)c2)cc1	i
O=c1[nH]c2ccc(S(=O)(=O)N3CCC(Cc4ccccc4)CC3)cc2[nH]1	i
CC(C)CC(=O)N1CCC(N2CCCC2)CC1	2%
O=C(NCCC1=CCCCC1)C1CCCC1	i
Cc1ccc(NC(=O)CSc2nnc(COc3c(C)cccc3C)o2)cc1C	i
CCOC(=O)c1cc(CC)sc1NC(=O)c1ccc([N+](=O)[O-])cc1	i
CCC(=O)c1cc2c(cc1NC(=O)c1ccccc1)OCCO2	i
Cn1nnc2cc(C(=O)Nc3nccs3)ccc21	i
O=C1NC(Nc2nc3ccccc3s2)(C(F)(F)F)C(=O)N1c1ccccc1 (stereo not given)	10%
CCCCOc1c(Cl)cc(C(=O)Nc2c(C)n(C)n(-c3ccccc3)c2=O)cc1Cl	i
COCCn1c(Cc2ccccc2)nnc1SCC(=O)c1ccccc1	i
CN(C)C1c2cccc3cccc(c23)C1NS(C)(=O)=O (stereo not given)	i
Nc1c(C(=O)Nc2ccc(Br)cc2)sc2nc(-c3ccncc3)ccc12	i
O=C(CC1CCC1)Nc1cc(Cl)ccc1Cl	i
Cc1ccc(C(CCN)c2ccco2)cc1 (stereo not given)	i
Cc1ccc(OCc2nc(C#N)c(NCc3ccc(Cl)cc3)o2)cc1	i
Cc1ccc(C(=O)NC(=S)Nc2cccc(Cl)c2Cl)cc1I	i
CCCC(=O)Nc1ccc(Cl)c(NC(=O)Cc2ccccc2)c1	i
COc1ccc(NC(=O)c2ccc(C)c(S(=O)(=O)Nc3ccccc3C)c2)cc1OC	i
NC(=O)c1cc(-c2ccco2)nc2ccccc12	0%
CC(C)OCCCNC(=O)CN(c1ccccc1Cl)S(=O)(=O)c1ccccc1	i
Cc1ccc(Cl)cc1NC(=O)CCC1CCCCC1	i
CN(CC(=O)Nn1cnnc1)S(=O)(=O)c1cc(Cl)ccc1Cl	i
O=C(Nc1ccccc1N1CCOCC1)c1ccc(-c2ccc(Br)cc2)o1	i
Cc1cc(C)nc(NS(=O)(=O)c2ccc(NC(=S)NC(=O)Cc3ccc(Cl)cc3)cc2)n1	9%
CCCCC(=O)NC(=S)Nc1ccc(I)cn1	6%
O=C(Nc1ccc(F)c(Cl)c1)c1cc2ccccc2o1	20%
CC(C)c1ccc(NC(=S)NCCc2c[nH]c3ccccc23)cc1	?
NC(=O)CN1CCN(C(=S)NC2CCCCC2)CC1	3%
COc1ccc(NC(=O)c2cccc(NC(=O)c3ccccc3)c2)c(OC)c1	i
COc1cccc(OC)c1C(=O)Nc1ccc2c(c1)Cc1ccccc1-2	i
COc1cc(-c2nnc(SCc3cc(Cl)cc(Cl)c3)o2)cc(OC)c1OC	i
COc1cc(NC(=O)c2cccs2)ccc1NC(=O)Cc1ccccc1	1%

Quoted at random: 9 compounds from above, in no set order.
SMILES	Mtb growth
CCCCC(=O)NC(=S)Nc1ccc(I)cn1	6%
COc1ccc(NC(=O)c2cccc(NC(=O)c3ccccc3)c2)c(OC)c1	i
COc1cccc(OC)c1C(=O)Nc1ccc2c(c1)Cc1ccccc1-2	i
NC(=O)CN1CCN(C(=S)NC2CCCCC2)CC1	3%
COc1cc(-c2nnc(SCc3cc(Cl)cc(Cl)c3)o2)cc(OC)c1OC	i
COc1cc(NC(=O)c2cccs2)ccc1NC(=O)Cc1ccccc1	1%
O=C(Nc1ccc(F)c(Cl)c1)c1cc2ccccc2o1	20%
O=C(Nc1ccccc1N1CCOCC1)c1ccc(-c2ccc(Br)cc2)o1	i
CC(C)c1ccc(NC(=S)NCCc2c[nH]c3ccccc23)cc1	?

Next part
SMILES	Mtb growth
Cc1cc(C(=O)O)c2cc(F)ccc2n1	i
Cn1c(=O)c2c3c(sc2n2c(SCC(=O)c4ccc(Br)cc4)nnc12)CCC3	i
CN(C(=S)NC(=O)c1ccc(Cl)cc1Cl)c1ccccc1	i
COc1ccc(Cl)cc1C(=O)Nc1ccccc1C(C)(C)C	8%
COc1ccc(Cl)cc1NC(=O)c1cccc2c(Br)cccc12	i
NC(=O)c1ccccc1NC(=O)c1cc(-c2ccc(Cl)s2)nc2ccccc12	2%
Cc1cc(Nc2ccc(C(=O)O)cc2)c2cc(Br)ccc2n1	1%
O=C(c1ccc(Cl)c(Cl)c1)N1CCN(C(=O)c2ccc(Cl)c(Cl)c2)CC1	i
CCOc1ccccc1OCC(=O)NCC(C)C	i
O=C(CCCOc1ccc(Cl)cc1)Nc1nc2ccc([N+](=O)[O-])cc2s1	5%
OCCNCCOc1ccc2ccccc2c1Br	i
CCCC(=O)NC(=S)Nc1cccc(OC)c1	i
O=[N+]([O-])c1cc(-c2nnc(-c3ccccc3)o2)ccc1NCC1CCCO1 (stereo not given)	2%
Cc1cccc(Nc2nc3ccccc3n3nnnc23)c1	0%
Cc1c(O)ccc2c(=O)c(-c3nncn3-c3ccccc3)coc12	i
Cc1ccc(Cn2c(=N)n(CC(O)c3ccc(Cl)c(Cl)c3)c3ccccc32)cc1 (stereo not given)	2.9µg/mL*
O=C(NN1C(=O)c2ccccc2C1=O)C(O)c1ccccc1 (stereo not given)	i
CCOC(=O)c1c(C)oc2ccc(NS(=O)(=O)c3ccc4c5c(cccc35)C(=O)N4)cc12	9%
CCC(C)NC(=O)CN1C(=O)C2C3C=CC(C3)C2C1=O (stereo not given)	i
CCOC(=O)c1c(C)[nH]c(NC(=O)N(CC)CC)c1C	i
COC(=O)c1ccc(Cl)c(NS(=O)(=O)c2ccc(SC)cc2)c1	i
Cc1ccc(Cl)cc1N1CCN(C(=O)CN(CCc2ccccc2)S(C)(=O)=O)CC1	i
CCOC(=O)c1c(NC(=O)c2ccncc2)sc2c1CCCCCC2	3%
CCOC(=O)Cc1csc(-c2ccccc2F)n1	1%
O=C(CS(=O)(=O)Cc1ccccc1)Nc1ccc(Cl)cc1C(=O)c1ccccc1	1%
CC(C)OC(=O)CSc1nnc(-c2ccco2)n1N	5%
CCc1cccc(C)c1NC(=O)CN(C1CCCCC1)S(=O)(=O)c1ccc(C)cc1	i
C=CCn1c(SCC(=O)N2CCCCCC2)nc2scc(-c3ccc(C)o3)c2c1=O	i
O=C(NCC1CCCO1)C(=O)Nc1ccc(Cl)c(Cl)c1 (stereo not given)	i
COc1ccc(NC(=O)Nc2cccc([N+](=O)[O-])c2)cc1Cl	?
COc1cc(CN2CC(C)OC(C)C2)cc(OC)c1 (stereo not given)	i
CCOC(=O)c1c(C(=O)OC)c(C(=O)OC)c2cc(C(=O)OC)ccn12	47%
O=c1cc(O)c2sc3nc4c(c(C(F)(F)F)c3c2[nH]1)CCCCC4	i
CN(C)C(=O)Oc1ccc(OC(=O)c2ccccc2)cc1	20%
CCOc1ccc(C(O)c2nccn2Cc2ccccc2)cc1 (stereo not given)	i
CCn1c(CNC(=O)c2ccccc2C)nnc1SCC(=O)Nc1nc(-c2ccccc2)cs1	1%

Among those listed so far, these contain an NH in an aromatic ring.
SMILES	Mtb growth
COc1ccc(-c2nc(SC3CC(=O)N(c4ccc([N+](=O)[O-])cc4)C3=O)n[nH]2)cc1 (stereo not given)	i
COc1cc2c(=O)n(-c3ccccc3)c(=S)[nH]c2c(OC)c1OC	i
O=c1[nH]c2ccc(S(=O)(=O)N3CCC(Cc4ccccc4)CC3)cc2[nH]1	i
CC(C)c1ccc(NC(=S)NCCc2c[nH]c3ccccc23)cc1	?
CCOC(=O)c1c(C)[nH]c(NC(=O)N(CC)CC)c1C	i
O=c1cc(O)c2sc3nc4c(c(C(F)(F)F)c3c2[nH]1)CCCCC4	i

Later entries
SMILES	Mtb growth
O=C(CN1CCCc2ccccc21)Nc1ccccc1	0%
CCOc1ccc(OCC)c(S(=O)(=O)NCc2ccccc2)c1	i
COCCn1c(Cc2ccccc2)nnc1SCC(=O)Nc1cccc(C)c1	i
Cc1cc(Br)ccc1NC(=O)CSc1ncn(-c2ccccc2)n1	i
CSc1ccc(S(=O)(=O)N2CCN(c3ccccc3F)CC2)cc1	i
COc1ccc(CCNC(=O)c2sc3nc(-c4ccncc4)ccc3c2N)cc1OC	4%
CCCc1nc2c(o1)NC(N)=C(C#N)C2Cc1ccccc1 (stereo not given)	i
Cn1c(=O)c2c(nc(OCc3ccco3)n2Cc2c(F)cccc2Cl)n(C)c1=O	i
Cc1cc(C)nc(Nc2n[nH]c(-c3cccc4ccccc34)n2)n1	i
Cc1ccc(-c2csc3ncn(CCc4ccccc4)c(=O)c23)cc1	4%
Cc1cccc(NC(=O)CN(c2ccc(Cl)c(Cl)c2)S(C)(=O)=O)c1C	i

Compound activity: PubChem BioAssay, Southern Research Institute
